PKD1 kinase inh = blocks activity of human protein kinase D1. PKD1 kinase fluorescence polarization assay. inhibition, %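 (about 10 µM by stock and volumes)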. 0.056% of 200,000 active;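 active means inhibition of 50% or more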;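 further: controls were vehicle for no effect and a reference inhibitor for full effect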
GALR2 agonist = GALR2 (human) receptor agonism. O43603. GALR2-expressing cells, agonist activation read-out. activation, %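 (tested at 5 µM)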. 0.48% of 140,000 active;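 active means above mean plus 3 SD of all compounds, about 5% in these data, not always enough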;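 further: 0% = vehicle buffer wells and 100% = reference agonist at full effect; tested in CHO reporter cells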
Target sequence (O43603 whole entry, looked up): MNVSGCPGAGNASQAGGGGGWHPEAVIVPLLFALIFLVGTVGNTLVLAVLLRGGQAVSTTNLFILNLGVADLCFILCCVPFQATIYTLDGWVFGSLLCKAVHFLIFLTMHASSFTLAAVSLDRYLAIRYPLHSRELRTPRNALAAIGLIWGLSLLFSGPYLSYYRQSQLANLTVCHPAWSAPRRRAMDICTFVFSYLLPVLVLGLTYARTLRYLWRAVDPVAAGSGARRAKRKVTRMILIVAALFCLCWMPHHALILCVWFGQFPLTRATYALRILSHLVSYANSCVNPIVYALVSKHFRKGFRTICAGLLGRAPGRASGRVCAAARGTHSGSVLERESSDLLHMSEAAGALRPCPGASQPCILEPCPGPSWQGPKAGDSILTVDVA
HSV augment = HSV replication enhancement; HSV replication augmentation in cells, fold increase; maximum fold increase; 0.005% of 220,000 active;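 active means peak rise of 1.5-fold or more in the series; inconclusive means self-fluorescent or not available for retest; tested in PC3 cells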;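 further: first round at 10 µM; read as green reporter fluorescence; hits show the peak of a series up to 25 µM; 1 = signal of infected wells without compound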
Insulin prom inh = TRM-6 insulin promoter activity inhibition; TRM-6 cells (human fetal islet line), insulin promoter-eGFP reporter, imaging; reporter expression induced with tamoxifen; inhibition, % at 2 µM; AID 1273; 0.9% of 130,000 active;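 active means inhibition above the mean plus 3 SD, with well images judged a real hit on visual review, cut at about 60% in these data, passing the limit was not always enough; inconclusive means inhibition over the cutoff but images rejected on review; inactive means inhibition not above the cutoff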
RGS16-Gao HTS = regulators of human RGS16-Galphao interaction; 0.38% of 220,000 active; binding response (% of control), % at 10 µM; O15492+P09471; bead-based flow cytometry RGS16-Galphao binding, fluorescence; actives lie on both sides;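 active means below 25% or above 175%, edge rows of some plates excepted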;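 further: Galphao activated by GDP with aluminum fluoride before binding; 100% = wells without compound and 0% = beads without RGS; some results beyond the cut were filed as inactive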
Target sequence (O15492 whole entry, looked up): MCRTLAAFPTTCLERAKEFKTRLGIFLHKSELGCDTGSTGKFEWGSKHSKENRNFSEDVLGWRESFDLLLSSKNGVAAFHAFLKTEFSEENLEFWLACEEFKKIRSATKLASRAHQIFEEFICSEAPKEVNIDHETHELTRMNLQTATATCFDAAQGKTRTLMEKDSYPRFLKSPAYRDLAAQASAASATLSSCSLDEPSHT
Target sequence (P09471 whole entry, looked up): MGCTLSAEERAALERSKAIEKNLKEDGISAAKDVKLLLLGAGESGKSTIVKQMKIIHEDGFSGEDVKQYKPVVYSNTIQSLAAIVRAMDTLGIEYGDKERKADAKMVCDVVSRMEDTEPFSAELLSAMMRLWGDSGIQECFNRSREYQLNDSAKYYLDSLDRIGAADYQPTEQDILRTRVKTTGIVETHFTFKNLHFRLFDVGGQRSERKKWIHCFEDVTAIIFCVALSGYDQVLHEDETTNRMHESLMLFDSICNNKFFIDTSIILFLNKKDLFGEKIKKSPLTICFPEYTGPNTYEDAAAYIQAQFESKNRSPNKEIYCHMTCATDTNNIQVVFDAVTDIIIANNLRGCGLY
Insulin prom inh cell count = recorded beside Insulin prom inh, whose call it bears; normalized cell count, %; measured here: cell count, toxicity; reference of the scale not given here;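 cells exposed to compound for 48 h; stained nuclei by imaging scaled within each plate; lower means fewer cells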
HSV augment primary fold = second read-out of HSV augment, no call of its own (marks repeat the call); fold increase; compound at 10 µM; measured here: primary screen fold increase 10 uM; tested in PC3 cells;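 GFP signal in the first replicate; 1 = infected wells without compound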
* marks the source's active call; other numbers are inactive results; i = inactive; ? = inconclusive; · = not tested or not shown.

The line under a structure holds: PKD1 kinase inh	GALR2 agonist	HSV augment	HSV augment primary fold	Insulin prom inh	Insulin prom inh cell count	RGS16-Gao HTS
CC1CC(C)CN(C(=O)CNC(=O)Cn2ccc3ccccc3c2=O)C1 (stereo not drawn)
 : 5	·	i	0.81	·	·	99
CCOC(=O)Cn1cc(C=O)c2ccccc21
 : -8	-1.8	i	0.99	48	67	57
Cc1cc(N)nc(C)c1C#N
 : -4	·	i	0.85	-20	133	100
CCC(Sc1nnc(-c2ccc(C)c(Cl)c2)n1CC)C(=O)Nc1nccs1 (stereo not drawn)
 : 7	-1.5	i	0.91	-46	89	102
Cc1cc(C)n(C(=O)C(C)N2C(=O)c3ccccc3C2=O)n1 (stereo not drawn)
 : 2	-0.7	i	0.95	·	·	106
O=C(CSc1ccc(Cl)cc1)Nc1ccccc1Oc1ccccc1
 : -3	0.5	i	1.1	·	·	104
Cc1cc2cc(CNC(=O)NC3CCCCC3)ccc2[nH]1
 : -3	-3.5	i	1	50	78	100
COc1ccccc1CNC(=O)c1ccc(S(=O)(=O)N(C)C)cc1
 : -2	0.5	i	0.95	-43	125	103
COc1cc(NC(=S)NC2CC(C)(C)NC(C)(C)C2)c(OC)cc1Cl
 : -1	·	i	0.92	-47	72	99
CCOC(=O)c1cccc(NC(=O)CN2C(=O)C3C4C=CC(C4)C3C2=O)c1 (stereo not drawn)
 : 20	-1.1	i	1	-108	70	100
COc1cccc(Cn2c(OCC3CCCO3)nc3c2c(=O)n(C)c(=O)n3C)c1 (stereo not drawn)
 : -6	-2.1	i	0.87	0	110	106
CCSc1nnc2c(Cl)cc(Cl)cn12
 : 2	2.9	i	0.94	·	·	106
COc1ccc(CCN=C2SCC(=O)N2C)cc1OC
 : -16	-0.3	i	0.78	14	72	101
COC(=O)CC1=C(C(=O)OC)C(c2ccc3c(c2)OCO3)C(C#N)=C(N)O1 (stereo not drawn)
 : ·	·	i	1	·	·	98
CCOc1ccc(C2=Nn3c(nnc3-c3ccc(OC)cc3)SC2)cc1
 : 5	-1.2	i	0.56	-65	13	102

Looked up above.
CCSc1nnc2c(Cl)cc(Cl)cn12 in PKD1 kinase inh reads 2
COc1ccccc1CNC(=O)c1ccc(S(=O)(=O)N(C)C)cc1 in Insulin prom inh reads -43
CCOC(=O)Cn1cc(C=O)c2ccccc21 in PKD1 kinase inh reads -8
CC1CC(C)CN(C(=O)CNC(=O)Cn2ccc3ccccc3c2=O)C1 (stereo not drawn) in HSV augment primary fold reads 0.81
CCOC(=O)c1cccc(NC(=O)CN2C(=O)C3C4C=CC(C4)C3C2=O)c1 (stereo not drawn) in HSV augment primary fold reads 1

The main list resumes, repeating the 2 entries before the break.
The line under a structure holds: PKD1 kinase inh	GALR2 agonist	HSV augment	HSV augment primary fold	Insulin prom inh	Insulin prom inh cell count	RGS16-Gao HTS
COC(=O)CC1=C(C(=O)OC)C(c2ccc3c(c2)OCO3)C(C#N)=C(N)O1 (stereo not drawn)
 : ·	·	i	1	·	·	98
CCOc1ccc(C2=Nn3c(nnc3-c3ccc(OC)cc3)SC2)cc1
 : 5	-1.2	i	0.56	-65	13	102
COC(=O)c1c(NC(=S)Nc2ccc(F)cc2[N+](=O)[O-])sc2c1CCCCC2
 : -2	-1.2	i	1.2	·	·	103
Cc1ccccc1N1C(=O)CC1(C#N)c1ccc(OCc2ccccc2)cc1 (stereo not drawn)
 : 1	0.5	i	0.86	-10	53	68
Cc1ccc(OCCOC(=O)Cn2nc(C)c([N+](=O)[O-])c2C)cc1
 : -6	·	·	·	36	64	131
CC(/C=N/Nc1nnc(C)c(=O)[nH]1)=C\c1ccccc1
 : -4	-3.2	i	0.76	·	·	101
Cc1ccc(-c2nc(C#N)c(NCCCn3ccnc3)o2)cc1
 : 5	·	i	0.82	8	117	113
COc1cc2c(cc1OC)CN(c1ccc([N+](=O)[O-])cc1C#N)CC2
 : -5	-0.9	i	0.86	·	·	99
O=C(COC(=O)/C=C/c1cccs1)Nc1cccc(S(=O)(=O)N2CCCC2)c1
 : -5	·	i	0.98	33	86	102
COc1ccc(N2CCN(C(=O)CN(C)S(=O)(=O)c3cc(C)ccc3OC)CC2)cc1
 : -6	·	i	1.1	6	70	96
N#C/C(=C/c1ccc(-c2ccccc2[N+](=O)[O-])o1)C(N)=O
 : -3	·	i	0.96	46	129	95
COc1ccc(/C=N/NC(=O)CSc2nnc(C)n2-c2ccccc2)c(OC)c1OC
 : -18	-3.2	i	1.1	10	114	108
COC(=O)c1cc(C)[nH]c2c(C)cc3nc4ccccc4c3c12
 : ·	·	i	0.81	·	·	105
CCc1oc2ccccc2c1C(=O)CCN1CCCCC1
 : 4	0.7	i	0.64	25	103	84
O=C(COC(=O)C1CCN(/C=C/C(=O)C(F)(F)F)CC1)Nc1ccccc1
 : -8	-0.2	i	1.1	·	·	107
c1ccc(Nc2nc(N3CCNCC3)nc(N3CCOCC3)n2)cc1
 : 0	-1.3	i	0.79	-19	70	104
O=c1[nH]c2cc([N+](=O)[O-])c([N+](=O)[O-])cc2[nH]c1=O
 : -2	·	i	0.98	·	·	96
O=C(NCc1ccccc1)c1cnsn1
 : -5	-0.8	i	1	6	115	6.7*
N#C/C(=C(/O)c1ccc(Cl)c([N+](=O)[O-])c1)c1nc2ccccc2[nH]1
 : ·	·	i	1	·	·	101
Oc1ccc2ccccc2c1C=Nc1ccc(N2CCOCC2)cc1
 : -8	-1.3	i	0.84	58	109	89
COC(=O)c1ccc(OC(=O)CS(=O)c2ccccc2[N+](=O)[O-])cc1 (stereo not drawn)
 : -5	·	i	0.93	·	·	97
N#C/C(=C1/CCCN1)c1ccccn1
 : 1	-1.9	i	1.1	-53	89	105
CC(C)C(=O)N(c1ccc2oc(=O)sc2c1)S(=O)(=O)c1ccccc1
 : 0	-1.4	i	0.88	-25	109	114
CC(C)Oc1ccc(CCC(=O)N/N=C/c2ccncc2)cc1
 : ·	·	i	0.89	·	·	102
O=C(NCCc1c[nH]c2ccccc12)/C(=C/c1ccco1)NC(=O)c1ccco1
 : 12	·	i	0.95	-42	42	101
COc1cc([N+](=O)[O-])ccc1NC(=O)CN1CCN(C(=O)c2ccco2)CC1
 : -3	·	i	0.95	-28	108	132
CCc1n[nH]c2c1C(=O)CC(C)(C)C2
 : 4	-1.3	i	0.93	-93	79	104
O=C1C=C(O)CC(c2cccs2)C1 (stereo not drawn)
 : 1	-3.5	i	1.1	70	93	89
COc1ccc(C2NN=C(c3ccc(C)cc3)S2)cc1OC (stereo not drawn)
 : 6	·	i	0.93	40	95	102
Cc1nc2ccccc2n1CC(=O)NC1CCCC1
 : 9	·	i	0.95	36	119	96
Cc1ccc(S(=O)(=O)N(CC(=O)NN=C2CCN(C)CC2)c2ccc(F)cc2)cc1
 : -6	·	i	0.9	-9	91	97
CCc1ccc(/C=C2\SC(N3CCOCC3)=NC2=O)cc1
 : -4	·	i	0.93	·	·	102
CCOC(=O)C1(Cc2ccccc2)CCN(Cc2nccn2CC)CC1
 : 8	·	i	1	·	·	92
COc1ccc2c(c1)c1nc3ccccc3nc1n2CCCN1C(=O)c2ccccc2C1=O
 : 1	0.6	i	1.1	·	·	96
CN(C)S(=O)(=O)c1cccc(-c2nn(-c3ccccc3)cc2/C=C(/C#N)C(=O)NCc2ccco2)c1
 : -3	3.1	i	0.92	·	·	110
Brc1ccc2ncnc(NCc3ccco3)c2c1
 : -3	-1.4	i	1	9	197	94
NC(=O)CC(NC(=O)Cc1ccc(Br)cc1)c1ccc(N2CCC(Br)CC2)c([N+](=O)[O-])c1 (stereo not drawn)
 : ·	·	i	0.88	·	·	102
Cc1ccc(S(=O)(=O)N2CCN(Cc3nc4ccccc4n3C)CC2)cc1
 : 0	-2.8	i	0.92	·	·	111
CN1CCN(CC/C=C2/c3ccccc3Sc3ccc(S(=O)(=O)N(C)C)cc32)CC1
 : ·	·	i	0.92	·	·	105
CCNc1ccccc(-c2ccc3ccccc3n2)c1=O
 : -3	0.1	i	1.1	0	86	96
O=C(CSc1ccc(-c2ccccc2)nn1)c1cccs1
 : 16	·	i	1	·	·	103
COC(=O)c1ccsc1NC(=O)c1cccc(OC)c1
 : -4	·	i	0.98	·	·	102
Cc1ccc2[nH]c(=O)c(CN(CCc3ccccc3)Cc3nnnn3CC3CCCO3)cc2c1 (stereo not drawn)
 : -9	-0.5	i	0.69	-37	45	103
COC(=O)c1ccc(NC(=O)COc2ccc(S(=O)(=O)NC(C)C)cc2)cc1
 : 2	-0.2	i	1	-226	104	174
CCOC(=O)N1CCN(c2ccc(O)cc2)CC1
 : -7	-1.0	i	0.64	39	68	99
O=C(Nc1ccc2nc(-c3cccnc3)[nH]c2c1)C1CCCCC1
 : 4	-0.7	i	0.97	-5	98	75
CC1=CCC(C(=O)O)C(C(=O)Nc2ccc(-c3nc4ccc(C)cc4s3)cc2)C1 (stereo not drawn)
 : ·	·	i	0.94	·	·	99
NS(=O)(=O)c1ccc(NC(=O)CN2CCN(Cc3ccccc3)CC2)cc1
 : -2	-1.4	i	0.89	7	116	99
CC1CCN(C(=O)c2cc3nc(C4CC4)cc(C(F)(F)F)n3n2)CC1
 : -4	-1.7	i	0.87	56	47	129
O=c1[nH]c2cccnc2n1-c1ccc([N+](=O)[O-])cc1
 : ·	·	i	0.73	·	·	99
COC(=O)C1=C(C)NC(=O)NC1/C=C/c1ccccc1 (stereo not drawn)
 : -13	-4.7	i	0.9	-333	90	98
O=C(NC(=S)N1CCCc2ccccc21)c1ccccc1
 : -7	-2.5	i	0.84	-117	112	102
COc1ccc(C[C@H]2CN3C(=NC[C@@H]3C(C)C)N2CCNC(=O)c2ccc(C)c(Br)c2)cc1
 : -6	·	i	0.67	·	·	100
Cc1cccc(-n2nc3c(c2NC(=O)CCC2CCCCC2)CS(=O)C3)c1C (stereo not drawn)
 : -7	-0.2	i	0.88	-143	120	103
CCOc1cc2[nH]c(=O)n(CCCCCC(=O)NCc3ccco3)c(=O)c2cc1OCC
 : -3	-1.7	i	0.82	25	50	101
O=C(CSc1cccc(C(F)(F)F)c1)NC(=O)c1ccccc1
 : 6	-0.7	?	·	-59	88	101
COc1ccccc1C(=O)C1CCCN(Cc2cccc3nccnc23)C1 (stereo not drawn)
 : -4	·	i	1.1	·	·	112
CC(=O)c1cccc(NC(=O)N2CCN(S(C)(=O)=O)CC2)c1
 : -2	-1.2	i	0.94	-62	59	102
C/C(=N\NC(=O)c1cc(-c2cccnc2)nc2ccccc12)c1ccc(O)cc1O
 : 2	-0.1	i	0.63	19	87	98
COC(=O)c1cnn(-c2ccccc2)c1-n1cccc1C=O
 : 4	·	i	0.99	·	·	106
c1ccc(-c2cc3ccccc3nc2N2CCCC2)cc1
 : -3	-1.3	i	1	23	68	94
O=C(Nc1ccc(C(=O)NC2CCCCC2)cc1)c1cncc(Br)c1
 : 1	·	i	0.94	·	·	104

RGS16-Gao HTS: what is marked active above.
molecule,PKD1 kinase inh,GALR2 agonist,HSV augment,HSV augment primary fold,RGS16-Gao HTS
O=C(NCc1ccccc1)c1cnsn1,-5,-0.8,i,1,6.7*

Following part
The line under a structure holds: PKD1 kinase inh	GALR2 agonist	HSV augment	HSV augment primary fold	Insulin prom inh	Insulin prom inh cell count	RGS16-Gao HTS
C=C(C)c1cccc(C(C)(C)NC(=O)NCCCn2ccnc2)c1
 : -12	1.0	i	0.92	-28	103	100
CC1CCCN(c2c([N+](=O)[O-])cc(C(=O)O)cc2[N+](=O)[O-])C1 (stereo not drawn)
 : 0	·	i	0.91	-21	106	103
CC(=O)Nc1cc(OC(=O)c2ccco2)cc(OC(=O)c2ccco2)c1
 : 1	-2.6	i	0.85	-8	112	92
O=C(COc1ccc2c(c1)CCC2)NCc1ccccc1
 : -1	-0.3	i	0.91	3	91	108
CCCc1cc(=O)n2[nH]c(-c3ccccc3)cc2n1
 : -2	-0.5	i	0.96	41	79	77
COc1cc(CCCN2C(=O)C(=O)NC[C@@H]2Cc2ccc(O)cc2)cc(OC)c1OC
 : ·	·	i	0.98	·	·	99
CCOc1ccc(OCCNC2CCCC2)cc1
 : -14	0.1	i	0.91	17	76	102
Cc1nonc1C1CCCN1C(=O)c1cc(COc2ccc(F)cc2Cl)on1 (stereo not drawn)
 : -3	·	i	0.93	-5	139	100
O=[N+]([O-])c1ccc(N2CCN(S(=O)(=O)c3ccc(Cl)cc3)CC2)cc1NCC1CCCO1 (stereo not drawn)
 : -3	-1.5	i	0.81	26	157	98

From PubChem BioAssay
